CDC25B-CDK2 inh = human CDC25B-CDK2/CyclinA binding inhibition; z-score (test concentration not listed); HTRF CDC25B-CDK2/CyclinA binding, anti-His/anti-Flag; stronger effect = higher value; hit rate 0.72% among 94,000; P30305+P24941; AID 1259370;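 note: score is relative to mean and SD of negative controls; strong numbers were not always called active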
TAR Tat displ = HIV-1 TAR-Tat binding disruption; hit rate 0.6% among 100,000; z-score (no concentration beside the values); AID 1259389; HIV-1 TAR RNA, Tat peptide displacement FRET; stronger effect = higher value;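 note: score is relative to mean and SD of negative controls; some compounds called inactive have numbers as strong as hits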
* marks the source's active call; other numbers are inactive results; nt = no result given.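 Rule for the calls: active = z-score from 3 up in half or more of its runs; inactive = the rest.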

Sample of the layout (5 entries):
Structure	CDC25B-CDK2 inh	TAR Tat displ
NCC[C@@H](O)C(=O)N[C@@H]1C[C@H](N)[C@@H](O[C@H]2O[C@H](CN)[C@@H](O)[C@H](O)[C@H]2O)[C@H](O)[C@H]1O[C@H]1O[C@H](CO)[C@@H](O)[C@H](N)C1O (some centres not stated)	nt	0.97
O=C(NC1CC1)c1cnc2sc(N3CCOCC3)nn2c1=O	nt	-0.57
Cc1nnsc1C(=O)Nc1sc2c(c1C#N)CCCC2	-1.5	0.24
CCc1nnc2sc(-c3cccnc3)nn12	-2.1	-1.1
Cc1ccc(-n2c(=O)c(C#N)cc3c(=O)n4cccc(C)c4nc32)cc1Cl	-2.9	-3.2

The whole of this part (from the top)
Structure	CDC25B-CDK2 inh	TAR Tat displ
NCC[C@@H](O)C(=O)N[C@@H]1C[C@H](N)[C@@H](O[C@H]2O[C@H](CN)[C@@H](O)[C@H](O)[C@H]2O)[C@H](O)[C@H]1O[C@H]1O[C@H](CO)[C@@H](O)[C@H](N)C1O (some centres not stated)	nt	0.97
O=C(NC1CC1)c1cnc2sc(N3CCOCC3)nn2c1=O	nt	-0.57
Cc1nnsc1C(=O)Nc1sc2c(c1C#N)CCCC2	-1.5	0.24
CCc1nnc2sc(-c3cccnc3)nn12	-2.1	-1.1
Cc1ccc(-n2c(=O)c(C#N)cc3c(=O)n4cccc(C)c4nc32)cc1Cl	-2.9	-3.2
Cn1ncc2c(O/N=C(\N)c3cc(C(F)(F)F)cc(C(F)(F)F)c3)ncnc21	0.71	nt
CN1C(C(=O)NCC2CCCO2)=CC(c2ccc(F)cc2)=NS1(=O)=O (configuration not stated)	-1.7	2.4
O=c1[nH]nc(-c2ccc(F)cc2)c2c1Nc1nnnn1C2c1ccc(F)cc1 (configuration not stated)	1.6	0.87
CCc1cc(C(=O)Nc2sc3c(c2C#N)CCC3)no1	2.1	2.3
Cc1cc(O)cc(=O)o1	nt	1.1
CCCCn1c(=O)[nH]c2nc3cc(NC(C)=O)ccc3nc2c1=O	2.3	-4.7
OCCN1CCN(CC/C=C2/c3ccccc3Sc3ccc(C(F)(F)F)cc32)CC1	-2.3	nt
CCOC(=O)c1ccc2c(c1)[C@@H]1C=CC[C@@H]1[C@H](c1cccc(OC)c1OC)N2	-0.76	-0.15
CCCCOC(=O)C(C)Nc1n[nH]c(=O)[nH]c1=O (configuration not stated)	-0.1	nt
O=C(Nc1ccc2nc3c4ccccc4c4ccccc4c3nc2c1)N(CCO)c1ccccc1	-2	nt
O=S(=O)(Nc1ccc(-c2noc(COc3ccc(Cl)cc3)n2)cc1)c1cccs1	nt	0.01
COc1ccccc1Nc1cccccc1=O	-1.4	-2.2
O=C(NCCc1ccccc1)N1CCC2(CC1)Nc1ccccc1-n1cccc12	nt	0.93
Cc1ccc(/C(O)=C2/C(=O)C(=O)N(c3ccc(O)cc3)C2c2cccc(F)c2)cc1 (configuration not stated)	-3.4	nt
Cc1ccc(-c2csc3ncn(C4CCCC4)c(=O)c23)cc1	-0.55	0.31

Already shown: 4 of the compounds above.
Structure	CDC25B-CDK2 inh	TAR Tat displ
COc1ccccc1Nc1cccccc1=O	-1.4	-2.2
O=C(NCCc1ccccc1)N1CCC2(CC1)Nc1ccccc1-n1cccc12	nt	0.93
Cc1ccc(/C(O)=C2/C(=O)C(=O)N(c3ccc(O)cc3)C2c2cccc(F)c2)cc1 (configuration not stated)	-3.4	nt
Cc1ccc(-c2csc3ncn(C4CCCC4)c(=O)c23)cc1	-0.55	0.31

Next section.
Structure	CDC25B-CDK2 inh	TAR Tat displ
Cc1c(-c2nc(-c3ccc(Cl)cc3)no2)nnn1-c1ccccc1F	nt	0.82
COc1ccc(C(=O)OCc2cc(=O)n3ccsc3n2)cc1OC	nt	0.28
O=C1CC(c2ccc(F)cc2F)c2c(nc(SCc3ccccc3F)[nH]c2=O)N1 (configuration not stated)	0.44	-0.18
COCCNC(=O)N1CCc2cc(S(=O)(=O)N3CCCCC3)ccc21	nt	1.2
CCc1ccc(S(=O)(=O)NCCc2sc(C)nc2C)cc1	nt	1.1
CCC(C)N1C(=O)C2C(C(=O)Nc3ccc(OC)cc3)C3C=CC2(O3)C1C(=O)NC1CCCCC1 (configuration not stated)	1.6	1.2
Cc1nn(C)c(C)c1CNC(=O)c1cc2cc(S(=O)(=O)N(C)C)ccc2n1C	nt	-0.23
CCC(C(=O)NC(C)CCc1ccccc1)n1nc(C)c2sc3ccccc3c2c1=O (configuration not stated)	1	2.9
COc1ccc(NC2=C(Cl)C(=O)OC2OC)cc1 (configuration not stated)	0.29	nt
c1csc(C2=Nc3ccccc3NC(c3cccs3)=N2)c1	-2.2	0.49
CN(C)S(=O)(=O)N(CC(=O)O)c1ccc(F)cc1	-0.72	1.1
Cc1cc(C)cc(NS(=O)(=O)c2cc3c4c(c2)CC(=O)N4CCC3)c1	nt	2
COc1ccc(-c2ccc(-c3noc(-c4ccccc4OC)n3)c(OC)n2)cc1	-0.7	-8.3
O=C(N1CCN(c2cccc(Cl)c2)CC1)C1(S(=O)(=O)c2ccc(Cl)cc2)CC1	-1.8	nt
O=C(NC1CCCC1)c1ccc(CS(=O)Cc2ccccc2Cl)o1 (configuration not stated)	nt	0.76
COc1ccc(OC)c(NC(=O)CSc2nnc(Cn3c(=O)sc4ccccc43)n2C)c1	-1.9	nt
CCCCC(CC)CN1CC(O)=C(c2nc3ccccc3s2)C1=N (configuration not stated)	-0.33	2.2
Cc1ccc2ncc(S(=O)(=O)c3ccccc3)c(N3CCN(C)CC3)c2c1	-0.13	-1.3
Cc1cc2n(n1)CCCN2C(=O)CCC(=O)NCCC(C)C	nt	1.8
COc1ccccc1NS(=O)(=O)c1ccc2c(c1)n(C)c(=O)n2C	-1.9	22
Cc1nc2c3ccccc3nc(SCc3cc(=O)n4cc(Br)ccc4n3)n2n1	-0.66	nt
Cc1cccc(OC(C)c2nc(-c3cccc(Br)c3)no2)c1 (configuration not stated)	-1.3	1.7
Cc1c(C)n(-c2ccc(Cl)cc2)c2ncn(CC(=O)N3CCOCC3)c(=O)c12	nt	1.1
Cc1cc(=O)oc(C)c1C(=O)NCCCN1C(C)CCCC1C (configuration not stated)	-1.6	nt
Cn1nccc1NC(=S)Nc1ccc(Br)cc1OC(F)(F)F	-1.1	nt
COCCNS(=O)(=O)c1ccc2c(c1)N(C)CCO2	nt	3.2
CN(C)S(=O)(=O)c1ccc2c(c1)nnn2CCCC(N)=O	nt	1.5
CCc1ccc(-c2cc(C)no2)cc1S(=O)(=O)NCCc1sccc1C	nt	0.15
CC(C)(C)c1cc(C(=O)NNC(=S)Nc2ccccc2)n(Cc2ccc(Cl)cc2Cl)n1	-1.1	nt
CCC(C)NC(=O)c1cc2n(n1)CC(C)(C(=O)NC1CCCC1)N(C)C2=O (configuration not stated)	nt	0.11
CC1CS(=O)(=O)N(c2ccc(S(=O)(=O)N3CCN(c4ccc(F)cc4)CC3)cc2)C1=O (configuration not stated)	-1.5	-0.77
c1ccc(-c2nnc3sc(CN4CCc5ccccc54)cn23)cc1	0.46	-1.2
O=C(NCCC1=CCCCC1)c1cnn2c3c(cnc12)CCCCCC3	nt	-0.97
O=C(CN1Cc2ccccc2C1=O)N1CCc2ccccc2C1	nt	-0.47
Cc1ccc(-c2cnc(NCc3ccc(Cl)cc3)n2C)cc1	-1	0.05
c1ccc(C2CCN(c3ncnc4c3nc3n4CCCCC3)C2)cc1 (configuration not stated)	nt	1.4
CCCCN(CC)C(=O)Cn1nc(Cc2ccncc2)c2ccccc2c1=O	-0.62	1.1
CC1(C(=O)N2CCCC2)CCC(=O)N1CCc1ccco1 (configuration not stated)	-1.2	-0.43
Cc1nc2cc(Nc3nnc(-c4ccccc4)c4ccccc34)ccc2n1C	-3.1	nt
Cc1ccc(-c2noc(/C=C/c3ccccc3)n2)cc1	-2	1.3
Cc1ccc(-c2c(C)noc2C)cc1S(=O)(=O)N1CCN(c2ccccc2)CC1	nt	-0.84
CC(C)N1CCn2c(nc3cc(NS(C)(=O)=O)ccc32)C1	-2.1	1.3
CSc1cccc(Nc2nc3ccccc3n3cnnc23)c1	-1.1	0.21
O=C(Cn1cnc2c(nc3n2CCCCC3)c1=O)N1CCN(c2ccccc2)CC1	nt	-0.31
O=C(NCc1ccc2c(c1)OCO2)C1CC(c2cccc(Br)c2)=NO1 (configuration not stated)	-2.3	-1.1
C=CCOc1cccc(C2c3c(oc4ccc(C)cc4c3=O)C(=O)N2Cc2ccc3c(c2)OCO3)c1 (configuration not stated)	-1.6	0.86
Cc1oc(-c2ccc(Cl)cc2)nc1CSc1nnc(C)n2c1cc1occc12	nt	1.6
CC(C)OCCCNC(=O)CSc1ccsc1[N+](=O)[O-]	-0.63	0.49
Cc1ccccc1OCC(O)Cn1c(CO)nc2ccccc21 (configuration not stated)	-2.5	0.32
O=C(NC1CCCCNC1=O)c1ccc2nsnc2c1 (configuration not stated)	-0.98	nt
CCCn1nc(-n2cnnc2)c(NS(=O)(=O)c2cccc(Cl)c2)c1C	-2	-0.59
Cc1c(C(=O)N2CC(C)CC(C)C2)sc2ncn(CC(=O)N3CCC(C)CC3)c(=O)c12 (configuration not stated)	nt	0.71
CN(C)c1ccc(Nc2cc(N3CCOCC3)c3noc4c3c2C(=O)c2ccccc2-4)cc1	-0.37	-4.4
CCOc1cc(/C=C2\SC(=O)N(C)C2=O)ccc1OCc1ccc(C)cc1	-2.1	nt
Cc1ccc(C2=NN=C(NC(=O)CSc3nnc4c5ccccc5n(C)c4n3)SC2)cc1	-1.4	nt
CCOC(=O)C1CCN(C(=O)CCc2c(C)nc3nc(C)nn3c2C)CC1	-0.28	0.55
CC(=O)n1ccc(-c2ccc(-c3cc(C(F)(F)F)n(C)n3)s2)n1	-1.1	nt
COC(=O)c1cc(-c2ccc3c(c2)OCO3)no1	-0.75	-0.37
CCC(=O)Nc1ccc2c(c1)sc(=O)n2C	nt	1.1
N#C/C(=C\N1CCc2ccccc2C1)C(=O)c1cccs1	0.34	nt

(cont.)
Structure	CDC25B-CDK2 inh	TAR Tat displ
Cc1nn(CCCC(=O)NCCCN2CCCCC2)c(=O)c2cc3occc3n12	-2.7	1.7
COc1ccc(OC)c(N=C2SCS2)c1	-0.85	nt
CN1CCCC(CN2c3ccccc3Sc3ccccc32)C1 (configuration not stated)	-9.2	0.34
Cn1c(SCc2nc(-c3ccccc3)no2)nnc1-c1cccs1	-0.73	0.39
CCOc1ccc(N2C(=O)C3C(c4ccc(C)cc4)OC4(C(=O)c5ccccc5C4=O)C3C2=O)cc1 (configuration not stated)	-0.75	-0.23
CSc1cccc(NC(=O)CC(C)S(=O)(=O)c2ccc3c(c2)CCN3C(=O)C2CC2)c1 (configuration not stated)	nt	-0.03
CCC(C(=O)NC1CCCCC1)n1c2ccccc2c2nc(=O)cc(C)n21 (configuration not stated)	-0.17	-0.52
O=C(Nc1ccc2c(c1)OCCO2)N1CCSc2ccccc21	nt	0.67
CCCc1nn2c(=O)cc(COc3c(C)cccc3C)nc2s1	0.78	-0.29
COc1ccc(OC)c(CNS(=O)(=O)c2ccc3[nH]c4c(c3c2)CCCCC4)c1	nt	2.2
COCCNc1c2c(c(C#N)c3nc4ccccc4n13)CCC2	-0.46	-2.4
Cc1cc(=O)nc2c3ccccc3n(CC(=O)NCCCN3CCOCC3)n12	1.3	2.2
Cn1c(NC(=O)c2cccc(Br)c2)cc(=O)n(C)c1=O	nt	2.4
Cc1ccc(-c2nc(N)n(C(=O)CC(C)C)n2)cc1C	0.77	-1.2
CCOC(=O)C1=C(C)NC2=C(C(=O)CC(C)(C)C2)C1c1ccc2c(c1)CCCN2C (configuration not stated)	0.14	-1.5
Cc1ccc(C2CCCN2C(=O)c2cnn3c(C(F)F)cc(C4CC4)nc23)cc1 (configuration not stated)	2	1.6
COC(=O)c1sccc1Oc1ccc(Cl)cc1[N+](=O)[O-]	-1.3	nt
Cn1cccc1Cc1nnc(SCC(=O)N2CCOCC2)n1-c1ccccc1	-2.2	-1.6
Cc1cccc(C)c1NC(=O)CSc1c(Cl)cccc1[N+](=O)[O-]	-1.9	nt
CCOC(=O)CN1C(=O)C(O)(CC(=O)c2cc(O)ccc2O)c2ccccc21 (configuration not stated)	-1.5	-0.36
O=S(=O)(Oc1ccc(Cl)cc1)c1csc(C(F)(F)F)c1-c1ccccc1	-0.13	nt
CC(C)(C)NC(=S)N/N=C/c1coc2c(Cl)cc(Cl)cc2c1=O	-1.8	nt
CCCn1c(=O)c2c(nc3n2CCN3c2ccc(Cl)cc2)n(C)c1=O	nt	2
O=C(Cn1c(=O)c(C(F)(F)F)nc2ccccc21)N1CCCCCC1	-0.89	nt
Cc1cc(NC(=O)N2CCCC2c2cccs2)ccc1Br (configuration not stated)	-2	2.3
Cc1ccc(C)c(S(=O)(=O)c2nnn3c2nc(N2CCC(C(N)=O)CC2)c2sccc23)c1	nt	0.31
COc1ccc(/C(C)=N/Oc2ccc([N+](=O)[O-])cc2[N+](=O)[O-])cc1CN1CCOCC1	-2.3	nt
Clc1cccc(CSc2nnc3c(n2)[nH]c2ccccc23)c1	0.46	-0.04
COC(=O)C[C@H]1C(C)(C)C(=O)[C@@H]2CC3=C4CC(=O)O[C@@H](c5ccoc5)[C@]4(C)CCC3C1(C)C2=O (some centres not stated)	nt	2.5
O=C1NC(c2ccccc2)c2c(-c3ccccc3)n[nH]c21 (configuration not stated)	-1.6	nt
C=CCN(C(=O)Cn1c(=O)n(Cc2ccco2)c(=O)c2cc(OC)c(OC)cc21)c1ccccc1	-1.7	-1.7
CC1CCc2c(cnc3c(C(=O)NCC4CCCO4)cnn23)C1 (configuration not stated)	nt	0.45

Screening data as filed in PubChem.
